Tau fibril ThT: inhibitors of human tau fibril formation, thioflavin T binding | P10636 | recombinant tau K18 P301L (four-repeat tau fragment), heparin-induced fibrillization, ThT fluorescence | Potency, µM (series often up to 57.4 µM), inactives show at the top dose activity, negative = inhibition, usual class: inhibitors | actives 2.1% (n = 270,000) | AID 1460; also: nearly all actives have a fitted effect of over 55% in size
Target sequence (P10636 561-689 P618L limits assumed): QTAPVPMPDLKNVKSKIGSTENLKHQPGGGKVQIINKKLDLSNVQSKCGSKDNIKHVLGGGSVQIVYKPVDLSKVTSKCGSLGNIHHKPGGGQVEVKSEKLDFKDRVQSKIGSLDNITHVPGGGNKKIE
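In this qHTS, human K18 P301L tau is incubated with compound and heparin for 6 hr at 37 C, and Thioflavin T fluorescence then reports fibril load.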
JMJD2E inh: inhibitors of human JMJD2E histone demethylase. actives 1.6% (n = 230,000). JMJD2E catalytic domain, FDH-coupled NADH fluorescence (FDH is formaldehyde dehydrogenase). B2RXH2. Potency, µM (top dose mostly 57.1 µM), for inactives: at the highest dose activity change, negative = inhibition, usual class: inhibitors; active = well fitted inhibition curve with a large enough effect, not every such curve was filed as active; inconclusive = small, poorly fitted or top-dose-only effect, or another doubt; inactive = no such curve, though single readings can be large or run the other way;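 also: 0% = wells with enzyme and -100% = buffer wells without enzyme; nearly all actives have a fitted effect of over 50% in size; many of its hits are not listed in these tables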
TRb SRC2 PPI: disrupts binding of human TR beta to SRC2 | P10828 | TRbeta-SRC2 peptide binding, fluorescence polarization; receptor liganded with 1 µM T3 | Potency, µM (series often up to 106 µM), for the others: at the top dose activity change, negative = inhibition, actives largely listed as inhibitors | actives 0.065% (n = 280,000) | AID 1469;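 also: plate controls were bound peptide for no effect and peptide without receptor for full effect; nearly all actives have a fitted effect of over 50% in size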
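Human TRb ligand-binding domain (0.6 uM) is mixed with 20 nM Texas Red SRC2 peptide and 1 uM T3; after compound addition and 5 hr at ambient temperature, polarization is measured and normalized to unbound and bound controls.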
TR SRC2 fluor cs: counter-screen for TRb-SRC2 inhibitors: fluorescence interference; TRb/SRC2 Texas Red total fluorescence interference; actives 0.29% (n = 280,000); Potency, µM (titrated, usually from 106 µM), for inactives: top-dose fluorescence change, negative = quenching; active = well fitted curve in either direction with a large enough effect; inconclusive = small, poorly fitted or top-dose-only effect
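Human TRb ligand-binding domain at 0.6 uM with 20 nM Texas Red SRC2 peptide in Tris buffer containing 1 uM T3 and 5% DMSO, incubated with compound 5 h at ambient temperature. Total fluorescence (555/632 nm) calculated as parallel + 2 × perpendicular.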
L3MBTL1 block: inhibitors of human L3MBTL1 | Q9Y468 | AlphaScreen L3MBTL1–H3K9me1 peptide binding | Potency, µM (series often up to 57.1 µM), without a hit: at the top dose activity, negative = inhibition, most hits filed as inhibitors | actives 0.66% (n = 230,000); also: nearly all actives have a fitted effect of over 60% in size
Target sequence (Q9Y468 whole entry, looked up): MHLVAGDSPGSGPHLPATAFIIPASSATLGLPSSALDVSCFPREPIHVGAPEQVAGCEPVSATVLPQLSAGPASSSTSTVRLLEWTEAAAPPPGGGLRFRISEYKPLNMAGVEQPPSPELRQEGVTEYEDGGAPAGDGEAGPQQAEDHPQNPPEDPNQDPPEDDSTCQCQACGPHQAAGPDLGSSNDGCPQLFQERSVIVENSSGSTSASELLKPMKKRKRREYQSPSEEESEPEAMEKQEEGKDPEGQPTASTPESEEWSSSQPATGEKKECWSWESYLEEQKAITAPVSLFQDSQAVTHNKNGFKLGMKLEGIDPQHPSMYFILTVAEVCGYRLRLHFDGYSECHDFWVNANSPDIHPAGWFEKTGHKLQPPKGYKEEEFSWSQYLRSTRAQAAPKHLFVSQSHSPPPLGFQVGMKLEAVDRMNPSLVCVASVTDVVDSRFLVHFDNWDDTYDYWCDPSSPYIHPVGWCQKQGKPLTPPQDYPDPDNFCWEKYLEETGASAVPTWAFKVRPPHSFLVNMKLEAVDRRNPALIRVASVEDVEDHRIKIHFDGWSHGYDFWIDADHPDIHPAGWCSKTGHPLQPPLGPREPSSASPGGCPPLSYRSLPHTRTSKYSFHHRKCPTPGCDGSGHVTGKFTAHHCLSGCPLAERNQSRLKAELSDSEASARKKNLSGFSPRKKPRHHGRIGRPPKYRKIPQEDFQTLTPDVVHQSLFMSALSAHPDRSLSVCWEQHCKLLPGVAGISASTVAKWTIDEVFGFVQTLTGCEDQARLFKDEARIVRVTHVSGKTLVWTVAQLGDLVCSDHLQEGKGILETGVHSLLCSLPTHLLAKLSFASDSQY
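L3MBTL1 50 nM + b-AHA-H3(1-15)K9me1 75 nM, 30 min RT; compound added, 30 min RT; streptavidin donor/Ni-chelate acceptor beads 10 ug/mL each final, 30 min RT dark; AlphaScreen read.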
RECQ1 helicase: blocks DNA unwinding by human RECQ1; P46063; RECQ1 DNA unwinding, red fluorescence kinetic read; Potency, µM (top dose mostly 57.3 µM), without a hit: at the top dose activity, negative = inhibition, usual class: inhibitors; actives 0.54% (n = 240,000); AID 2549;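 also: plate controls were vehicle for no effect and no enzyme for full effect; nearly all actives have a fitted effect of over 30% in size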
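RECQ1T1 50 nM; forked duplex (20 bp + 30-nt ss tails) 200 nM, ATP 2 mM final; pH 8.0, 2 mM MgCl2, 2.5 ug/ml poly(dI-dC); 15 min compound preincubation; discontinuous kinetic read over 2 h at RT.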
Tau fibril FP: tau fibrillization inhibition (FP); P10636; K18 P301L tau heparin fibrillization, Alexa594 FP, 6 h; Potency, µM (doses to about 57.7 µM), for the others: at the highest dose activity, negative = inhibition, hits mostly inhibitors; actives 0.39% (n = 280,000); AID 1468; also: nearly all actives have a fitted effect of over 55% in size
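Human tau K18 […] P301L fragment, 15 uM unlabeled plus 0.24 uM Alexa 594-labeled tau (final), with compound and 20 uM heparin in 100 mM sodium acetate pH 7; 6 hr at 37 C, then Alexa 594 FP read.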
Starred values were filed as active, the others as inactive; i = inactive; ? = inconclusive; . = no result given; [ ] = dose if it differs, or a comment. Unless noted, calls follow the shape of the dose curve; as a rule, active = well fitted curve in the direction sought with a large enough effect; inconclusive = small, poorly fitted or top-dose-only effect, or another doubt; inactive = no such curve, though single readings can be large; an effect the other way counts as inactive or inconclusive. Unless noted, % is scaled to controls: 0 for no effect and ±100 for the full control effect; potency is read from the fitted curve at half-maximal effect. This is a subset; rates above refer to the full screens.

(1) CC1(C)Oc2ccc3ccc(=O)oc3c2/C(=C/Nc2cccc(O)c2)C1=O
(2) C=CCOc1nc2c(c(=O)n(C)c(=O)n2C)n1Cc1ccc(Cl)cc1Cl
(3) CC1=C(C)CC(C(=O)N2CCN(Cc3ccccc3)CC2)C(C(=O)O)C1 (stereo unspecified)
(4) C=CCN(C(=O)Nc1ccc2c(c1)nc(C)n2C)c1ccccc1
(5) NC(=O)NC(c1ccc(Cl)cc1)c1ccccc1Cl (stereo unspecified)
(6) CCc1ccc(C2CC(=O)N3CN(c4ccccc4)CSC3=C2C#N)cc1 (stereo unspecified)
(7) Cn1c(SCC(=O)N2CCOCC2)nnc1-c1ccccc1
(8) COC(=O)c1[nH]c2ccc(C)cc2c1NC(=O)CN1CCN(Cc2ccccc2)CC1
(9) COc1ccc(CN(C)C2CCCCC2)cc1
(10) Cc1cc(C(F)(F)F)nc(Nc2nc(C)c3ccccc3n2)n1

assay / compound,1,2,3,4,5,6,7,8,9,10
TR SRC2 fluor cs,-2.1%,-2.2%,-0.5%,-2.8%,17.4%,-0.1%,-2.3%,-3.8%,0.8%,2.8%
TRb SRC2 PPI,10.1%,-4.1%,-6.1%,3.0%,-28.1%,1.7%,-7.7%,1.6%,-18.7%,-5.8%
JMJD2E inh,-10.6%,1.1%,-13.3%,1.7%,1.2%,?,-5.3%,?,1.2%,-3.3%
L3MBTL1 block,.,-2.0%[11.4 µM],.,.,-8.1%,.,3.7%,-5.1%,.,.
Tau fibril FP,-5.5%,0.2%,-11.1%,1.9%,-5.2%,?,-0.7%,7.9%,-4.1%,2.0%
RECQ1 helicase,-6.7%,-0.1%,6.4%,i,92.8%[activator],-23.8%,-8.9%,-2.9%,i,-14.3%
Tau fibril ThT,?,-8.0%,-7.5%,-3.2%,-3.8%,31.6µM*,-20.5%,?,3.9%,-2.4%

(11) Cc1cc(C)cc(N2CC(c3nc4ccccc4n3C)CC2=O)c1 (stereo unspecified)
(12) Cc1cc(NS(=O)(=O)Cc2ccccc2)cc(C)c1OCC(=O)N1CCOCC1
(13) N#CC1=C2SCN(c3ccc(F)cc3)CN2C(=O)CC1c1cccc(F)c1 (stereo unspecified)
(14) O=C(N/N=C/c1ccco1)c1cc([N+](=O)[O-])cc([N+](=O)[O-])c1
(15) Cn1c(SCC(=O)NC(C)(C)C)nnc1-c1cccc(NC(=O)c2ccccc2F)c1
(16) O=C(Nc1nnc(-c2cccnc2)s1)c1cccs1
(17) COc1cc(C(=O)OCc2cc3ccccc3[nH]c2=O)cc(OC)c1OC
(18) COC(=O)c1cnn(-c2ccccc2)c1N
(19) COc1ccc(CN2C(=O)CS/C2=N/N=C/c2ccccc2)cc1
(20) CCOC(=O)N1CCN(S(=O)(=O)Cc2ccccc2)CC1

assay / compound,11,12,13,14,15,16,17,18,19,20
TR SRC2 fluor cs,-0.8%,-4.4%,-4.1%,-0.5%,-0.7%,-2.7%,-2.2%,-1.6%,-1.5%,1.0%
TRb SRC2 PPI,8.7%,-8.7%,3.4%,-6.9%,4.1%,-4.2%,-2.0%,8.3%,-0.6%,0.5%
JMJD2E inh,-9.4%,0.1%,22.4µM*,-1.9%,3.1%,-20.4%,4.2%,-1.3%,0.0%,-0.8%
L3MBTL1 block,5.9%,3.7%,.,2.7%,.,.,4.2%,-4.4%,0.4%,-10.1%
Tau fibril FP,-4.6%,5.5%,?,4.8%,-1.4%,4.1%,6.3%,0.9%,-6.4%,-0.7%
RECQ1 helicase,-7.8%,-20.8%,-24.4%,0.8%,-11.0%,i,1.4%,3.7%,-10.0%,-1.0%
Tau fibril ThT,-9.2%,-6.5%,15.8µM*,-3.6%,-5.8%,-15.9%,-1.7%,-2.0%,4.4%,3.6%

(21) COCc1cc(C)nc(N2CCN(Cc3ccccc3)CC2)c1C#N
(22) Cc1nc2nc(C)n(-c3ccccc3)c2s1
(23) O=C(Nc1ccc(O)c(-c2nc3ccccc3o2)c1)C1(c2ccc(Cl)cc2)CCCC1
(24) Cc1ccc2cc(C(=O)O)c(C)nc2c1
(25) Cc1cc(C)nc(N/N=C/C=C/c2ccccc2)n1
(26) COc1cc([N+](=O)[O-])c(OC)cc1SCc1n[nH]c(=S)n1-c1ccc(C)cc1
(27) CCOc1cc(O)c(-c2[nH]ncc2-c2nc(C)cs2)cc1CC
(28) CC12CCC(C/C1=N\N=C1\NC(=O)/C(=C\c3ccc(Cl)cc3)S1)C2(C)C (stereo unspecified)
(29) CSc1nnc(-c2ccc(NC(=O)CCc3ccccc3)cc2)n1C
(30) COC(=O)c1ccc(NC(=O)C2CCN(C(=O)c3cc(OC)c(OC)c(OC)c3)CC2)cc1

assay / compound,21,22,23,24,25,26,27,28,29,30
TR SRC2 fluor cs,-11.7%,-3.4%,4.8%,4.7%,-0.9%,-6.1%,1.3%,1.7%,-0.7%,-0.1%
TRb SRC2 PPI,-2.8%,-2.5%,-17.5%,-6.0%,5.1%,5.1%,7.0%,0.8%,-13.1%,-8.4%
JMJD2E inh,12.4%,-4.2%,3.9%,-18.7%,5.2%,-1.5%,-29.2%,24.5%,?,1.2%
L3MBTL1 block,.,2.7%,60.3%[activator],4.2%,1.1%,.,-21.7%,5.6%,5.4%,.
Tau fibril FP,10.4%,-4.7%,8.6%,-0.9%,-0.9%,1.8%,?,-11.3%,3.5%,-11.6%
RECQ1 helicase,-1.3%,i,-0.1%,-2.7%,2.0%,-1.3%,-7.8%,-5.5%,-9.7%,-7.5%
Tau fibril ThT,-11.4%,-17.0%,2.9%,-4.5%,-4.6%,.,-8.0%,?,-2.7%,-8.9%

Three entries from above, arranged by count of non-hydrogen atoms, rising:
(7) Cn1c(SCC(=O)N2CCOCC2)nnc1-c1ccccc1
(10) Cc1cc(C(F)(F)F)nc(Nc2nc(C)c3ccccc3n2)n1
(19) COc1ccc(CN2C(=O)CS/C2=N/N=C/c2ccccc2)cc1

assay / compound,7,10,19
TR SRC2 fluor cs,-2.3%,2.8%,-1.5%
TRb SRC2 PPI,-7.7%,-5.8%,-0.6%
JMJD2E inh,-5.3%,-3.3%,0.0%
L3MBTL1 block,3.7%,.,0.4%
Tau fibril FP,-0.7%,2.0%,-6.4%
RECQ1 helicase,-8.9%,-14.3%,-10.0%
Tau fibril ThT,-20.5%,-2.4%,4.4%

Next section.
(31) CN1CCN(C(=O)C2(NC(=O)NCc3ccccc3)CCCCC2)CC1
(32) CCOC(=O)C(=O)NC12CC3CC(CC(C3)C1)C2
(33) CC[C@@H](Nc1ncnc2c1oc1ccccc12)C(=O)O
(34) CCC(Sc1nnnn1C)C(=O)Nc1ccc(C(C)=O)cc1 (stereo unspecified)
(35) CCOC(=O)c1sc(=S)n2c1[nH]c(=O)c1ccc(C(=O)OC)cc12
(36) Cc1c(C(=O)NCc2ccccn2)oc2ccc(S(=O)(=O)N3CCOCC3)cc12
(37) CCOc1ccc(-c2nn(-c3ccccc3)cc2/C=C(\C#N)S(=O)(=O)c2ccccc2)cc1C
(38) CC(C)Nc1nc(N(c2ccccc2)c2ccccc2)nc(-n2ccnc2)n1
(39) O=C(OCc1cn(Cc2ccccc2)nn1)c1ccccc1
(40) Cc1c(C(=S)NC(=O)C2CC2)c(=O)n(-c2ccccc2)n1C

assay / compound,31,32,33,34,35,36,37,38,39,40
TR SRC2 fluor cs,-3.8%,0.4%,-2.5%,-7.2%,-0.6%,-0.9%,4.7%,-0.2%,-3.3%,-0.3%
TRb SRC2 PPI,-1.2%,1.2%,-1.5%,-5.4%,2.4%,3.3%,2.2%,-4.1%,-0.6%,-2.3%
JMJD2E inh,-5.6%,3.0%,-1.0%,-2.8%,3.8%,2.3%,0.4%,-4.0%,0.8%,2.1%
L3MBTL1 block,2.6%,0.7%,-5.6%,.,-6.5%,.,3.8%,-2.4%,.,.
Tau fibril FP,7.9%,-13.8%,-1.7%,-9.5%,-6.4%,-7.8%,-3.1%,-0.3%,5.2%,-6.0%
RECQ1 helicase,i,-1.2%,-7.6%,-1.5%,8.1%,i,i,9.8%,i,-14.4%
Tau fibril ThT,7.1%,0.7%,4.0%,?,7.08µM*,-3.4%,-6.8%,-7.9%,-2.1%,?

Only JMJD2E inh, RECQ1 helicase and TRb SRC2 PPI, for some of the entries so far:
No.	SMILES	JMJD2E inh	RECQ1 helicase	TRb SRC2 PPI
37	CCOc1ccc(-c2nn(-c3ccccc3)cc2/C=C(\C#N)S(=O)(=O)c2ccccc2)cc1C	0.4%	i	2.2%
32	CCOC(=O)C(=O)NC12CC3CC(CC(C3)C1)C2	3.0%	-1.2%	1.2%
34	CCC(Sc1nnnn1C)C(=O)Nc1ccc(C(C)=O)cc1 (stereo unspecified)	-2.8%	-1.5%	-5.4%
40	Cc1c(C(=S)NC(=O)C2CC2)c(=O)n(-c2ccccc2)n1C	2.1%	-14.4%	-2.3%
31	CN1CCN(C(=O)C2(NC(=O)NCc3ccccc3)CCCCC2)CC1	-5.6%	i	-1.2%
35	CCOC(=O)c1sc(=S)n2c1[nH]c(=O)c1ccc(C(=O)OC)cc12	3.8%	8.1%	2.4%

Additional entries:
(41) COc1cccc(C2CC(=O)N3CN(c4ccccc4F)CSC3=C2C#N)c1 (stereo unspecified)
(42) O=c1cc(C23CC4CC(CC(C4)C2)C3)[nH][nH]1
(43) Clc1cccc(Cl)c1-c1nnc2cccc(Cl)n12
(44) Cc1ccccc1-n1c(=O)cc(N2CC(C)OC(C)C2)[nH]c1=O (stereo unspecified)

assay / compound,41,42,43,44
TR SRC2 fluor cs,-0.7%,4.7%,-2.8%,2.5%
TRb SRC2 PPI,-1.1%,25.1µM*,-10.4%,-14.1%
JMJD2E inh,?,8.4%,-3.4%,4.7%
L3MBTL1 block,.,.,-0.9%,-0.4%
Tau fibril FP,-7.6%,-5.0%,-0.9%,?
RECQ1 helicase,-0.1%,i,0.7%,i
Tau fibril ThT,?,?,-8.1%,3.3%

Bioassay records as filed in PubChem.
